Source: PubChem BioAssay (several laboratories)
HSV augment – HSV replication enhancement; HSV replication augmentation in cells, fold increase; maximum fold increase; hit rate 0.005% among 220,000;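 active = peak rise of 1.5-fold or more in the series; inconclusive = self-fluorescent or not available for retest; tested in PC3 cells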;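 note: first round at 10 µM; read as green reporter fluorescence; hits show the peak of a series up to 25 µM; 1 = signal of infected wells without compound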
INS promoter inh – TRM-6 insulin promoter activity inhibition. AID 1273. hit rate 0.9% among 130,000. inhibition, % at 2 µM. TRM-6 cells (human fetal islet line), insulin promoter-eGFP reporter, imaging; reporter expression induced with tamoxifen;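 active = inhibition above the mean plus 3 SD, with well images judged a real hit on visual review, cut at about 60% in these data, passing the limit was not always enough; inconclusive = inhibition over the cutoff but images rejected on review; inactive = inhibition not above the cutoff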
GALR2 agonist – agonists of human galanin receptor 2 (GALR2). GALR2-expressing cells, agonist activation read-out. O43603. hit rate 0.48% among 140,000. activation, %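 (tested at 5 µM)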;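 active = above mean plus 3 SD of all compounds, about 5% in these data, not always enough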;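 note: 0% = vehicle buffer wells and 100% = reference agonist at full effect; tested in CHO reporter cells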
PKD1 inh – PKD1 (human) kinase inhibition; Q15139; PKD1 kinase fluorescence polarization assay; inhibition, %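 (about 10 µM by stock and volumes)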; hit rate 0.056% among 200,000; AID 797;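 active = inhibition of 50% or more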;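 note: controls were vehicle for no effect and a reference inhibitor for full effect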
Target sequence (Q15139 whole entry, looked up): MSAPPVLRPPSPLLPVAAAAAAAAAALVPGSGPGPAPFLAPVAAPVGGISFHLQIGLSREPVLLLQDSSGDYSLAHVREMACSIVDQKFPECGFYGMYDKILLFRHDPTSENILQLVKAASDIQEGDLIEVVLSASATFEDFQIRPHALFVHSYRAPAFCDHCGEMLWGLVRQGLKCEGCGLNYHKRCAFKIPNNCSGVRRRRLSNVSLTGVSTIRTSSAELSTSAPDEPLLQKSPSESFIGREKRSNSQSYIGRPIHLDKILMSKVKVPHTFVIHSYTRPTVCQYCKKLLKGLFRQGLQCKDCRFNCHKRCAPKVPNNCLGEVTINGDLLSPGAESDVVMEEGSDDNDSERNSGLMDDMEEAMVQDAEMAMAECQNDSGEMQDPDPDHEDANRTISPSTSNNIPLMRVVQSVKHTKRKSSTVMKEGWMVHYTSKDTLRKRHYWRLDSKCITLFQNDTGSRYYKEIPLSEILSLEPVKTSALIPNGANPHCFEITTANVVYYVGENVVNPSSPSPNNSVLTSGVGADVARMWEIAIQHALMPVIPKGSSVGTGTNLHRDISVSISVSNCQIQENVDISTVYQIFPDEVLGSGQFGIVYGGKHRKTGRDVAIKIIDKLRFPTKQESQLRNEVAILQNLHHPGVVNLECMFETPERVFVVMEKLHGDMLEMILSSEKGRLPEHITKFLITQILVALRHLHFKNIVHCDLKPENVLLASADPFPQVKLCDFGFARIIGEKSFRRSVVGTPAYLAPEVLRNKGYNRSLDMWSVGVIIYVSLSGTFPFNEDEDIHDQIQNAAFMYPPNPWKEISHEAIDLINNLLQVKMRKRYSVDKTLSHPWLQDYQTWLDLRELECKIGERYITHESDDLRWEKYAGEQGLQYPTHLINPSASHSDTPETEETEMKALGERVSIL
RGS16-Gao HTS – modulates binding between human RGS16 and Galphao. binding response (% of control), % at 10 µM. bead-based flow cytometry RGS16-Galphao binding, fluorescence; actives lie on both sides. O15492+P09471. AID 1441. hit rate 0.38% among 220,000;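 active = below 25% or above 175%, edge rows of some plates excepted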;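 note: Galphao activated by GDP with aluminum fluoride before binding; 100% = wells without compound and 0% = beads without RGS; some results beyond the cut were filed as inactive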
INS promoter inh cell count – second read-out of INS promoter inh, no call of its own (marks repeat the call); normalized cell count, %; measured here: cell count, toxicity; reference of the scale not given here;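 cells exposed to compound for 48 h; stained nuclei by imaging scaled within each plate; lower means fewer cells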
HSV augment primary fold – second read-out of HSV augment, no call of its own (marks repeat the call); fold increase; compound at 10 µM; measured here: primary screen fold increase 10 uM; tested in PC3 cells;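 GFP signal in the first replicate; 1 = infected wells without compound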
* hit, by the source's call; i = inactive; ? = inconclusive; . = no result given.

Each structure is followed by: PKD1 inh | HSV augment | INS promoter inh cell count | GALR2 agonist | INS promoter inh | RGS16-Gao HTS | HSV augment primary fold
[1] CSc1ccccc1NC(=O)COC(=O)c1ccccc1O
 : -1 | i | 54 | . | 0 | 100 | 1
[2] CC(C)C1N=C2c3ccccc3N=C(SCc3cc(=O)n4ccccc4n3)N2C1=O (stereo not drawn)
 : 4 | . | 111 | 2.2 | 8 | . | .
[3] Cc1cc(C(F)(F)F)nn1-c1nc(-c2ccco2)cc(C(F)(F)F)n1
 : 6 | i | . | -3.1 | . | 99 | 0.91
[4] COc1ccc(N(CC(=O)N/N=C(\C)c2cccs2)S(=O)(=O)c2ccccc2)cc1Cl
 : -3 | i | 128 | . | -9 | 123 | 0.75
[5] CCCCCCCCOC(=O)CCn1[nH]c(=O)c2ccccc2c1=O
 : -4 | i | 141 | 1.2 | 0 | 100 | 1.1
[6] CCOc1ccccc1NC(=O)CN(C)S(=O)(=O)c1cccc2nsnc12
 : -2 | i | 140 | -3.6 | -24 | 102 | 0.85
[7] CCOc1cc(C2C(C(=O)N3CCCCC3)=C(C)NC3=C2C(=O)CCC3)cc(Br)c1O (stereo not drawn)
 : -7 | i | 103 | 0.0 | 14 | 111 | 0.96
[8] Cc1c(-c2nnc(-c3ccc(C(F)(F)F)cc3)o2)cnn1-c1ccccc1
 : -2 | i | 84 | -1.3 | -5 | 99 | 0.98
[9] COc1ccc(CNC(=O)c2c(-c3cc(Cl)c(OC)c(Cl)c3)noc2C)cc1
 : -5 | i | . | -3.6 | . | 115 | 0.68
[10] Oc1c(N=Nc2ccccc2)sc2ccccc12
 : . | ? | . | . | . | 102 | .
[11] Cc1cn(-c2ccc(Br)cc2)[nH]c1=O
 : -7 | i | 173 | -0.7 | -4 | 111 | 0.78
[12] COc1ccc(C2CC(c3ccc(C)cc3)Nc3nc(N)nn32)cc1 (stereo not drawn)
 : -12 | i | 168 | 0.4 | 18 | 101 | 0.91
[13] N#CCCN(C(=O)c1ccco1)c1ccccc1
 : 1 | i | 104 | -1.6 | 5 | 104 | 0.99
[14] O=C(N/N=C/c1ccc2ccccc2c1)c1ccc(COc2ccc3c(c2)CCC3)o1
 : 2 | i | 100 | -1.7 | 2 | 105 | 0.86
[15] Cc1onc(-c2ccccc2Cl)c1C(=O)NCc1nc(-c2ccc(C(F)(F)F)cc2)no1
 : . | i | . | . | . | 106 | 0.97
[16] CCOc1cc(Br)ccc1S(=O)(=O)NCc1ccccc1
 : 7 | . | . | -2.1 | . | 101 | .
[17] COCCOC(=O)c1c(C)nc(SCC(=O)Nc2ccc(C)cc2)c(C#N)c1-c1ccco1
 : 1 | . | . | 0.3 | . | 102 | .
[18] O=C(CCC(=O)Nc1ccccc1)NNC(=O)c1ccccc1Cl
 : -3 | i | 178 | . | 33 | 108 | 0.91
[19] COc1ccc(Nc2nc(N)nc(CSc3nc(C)cc(C)n3)n2)cc1
 : 12 | i | 92 | . | 12 | 97 | 0.88
[20] CCOC(=O)C(C)n1cnc2c(nnn2Cc2ccc(C)cc2)c1=O (stereo not drawn)
 : 3 | i | 105 | -1.7 | -19 | 100 | 1.3
[21] CCc1nc(NCc2ccccc2)c(C#N)c2c1CCCC2
 : 2 | i | 145 | -1.3 | -220 | 102 | 0.95
[22] CCOc1ccc(-n2c(C)nc3cc(C(=O)NCc4ccc5c(c4)OCO5)ccc32)cc1
 : -2 | i | 95 | -0.5 | -33 | 108 | 1.1
[23] Cc1cccc2c1CC(C)(C)N/C2=C\C(N)=O
 : -8 | i | 130 | -1.1 | -15 | 108 | 0.9
[24] Cc1ccc(-c2ncccc2OC(=O)C23CC4CC(CC(C4)C2)C3)cc1
 : -13 | . | 91 | -2.5 | 62 | 105 | .
[25] Cc1ccc(-n2c(=O)c(C#N)cc3c(=O)n4ccccc4nc32)cc1C
 : 0 | i | 130 | 3.4 | -32 | 101 | 0.99
[26] CCOC(=O)Cn1nc(C)n(-c2ccc(Cl)cc2)c1=O
 : -2 | i | . | . | . | 102 | 0.99
[27] Cc1nn(C)c(C)c1S(=O)(=O)NC1CCCC1
 : -4 | i | 74 | -0.5 | 3 | 102 | 1
[28] Clc1cc(Cl)cc(C2=NCCC(c3ccccc3)O2)c1 (stereo not drawn)
 : -5 | . | 99 | 0.2 | -15 | 105 | .
[29] O=C(O)c1ccc(NS(=O)(=O)c2cc(Cl)ccc2Cl)cc1
 : -18 | i | 109 | -0.9 | 62 | 80 | 0.92
[30] COCCNC(=O)C(NC(=O)C1CCCCC1)C(C)C (stereo not drawn)
 : -1 | i | 123 | . | -13 | 103 | 1

(further entries)
Each structure is followed by: PKD1 inh | HSV augment | INS promoter inh cell count | GALR2 agonist | INS promoter inh | RGS16-Gao HTS | HSV augment primary fold
[31] Cc1ccc(NC(=O)COC(=O)CNC(=O)c2ccc3ccccc3c2)c([N+](=O)[O-])c1
 : -7 | i | 87 | -0.6 | 16 | 45 | 0.94
[32] CCCn1nnc(NC(=O)C(C)Oc2ccc(Cl)cc2Cl)n1 (stereo not drawn)
 : -4 | i | 111 | -1.9 | -59 | 101 | 1.1
[33] COc1cc(C(=S)N2CCOCC2)ccc1OS(=O)(=O)c1ccccc1[N+](=O)[O-]
 : -10 | i | 94 | 0.6 | 24 | 110 | 0.95
[34] Cc1cc(N2C(=O)CCC2=O)ccc1NC(=O)c1cccs1
 : 0 | i | 30 | 0.2 | 43 | 102 | 1
[35] CC(=O)Nc1nnc(SCC(=O)c2ccc(F)cc2)s1
 : 0 | i | 69 | . | -10 | 119 | 1
[36] CC(C)n1cc(-c2nc(C(=O)NN)cs2)c(=O)n(Cc2ccccc2)c1=O
 : . | i | . | . | . | 101 | 1
[37] C=CCn1c(SCC(=O)c2cc(C)n(C)c2C)nnc1-c1ccncc1
 : -3 | i | 131 | . | -35 | 103 | 1.1
[38] Cc1sc2ncn(CC(=O)OCC(=O)NC(C)(C)C)c(=O)c2c1C
 : 0 | i | . | -1.8 | . | 93 | 0.99
[39] Cc1ccc(N2C(=O)c3ccccc3C2C(=O)c2ccc(C)c(C)c2O)cc1 (stereo not drawn)
 : . | i | . | . | . | 88 | 1
[40] CCOc1ccc(C(C)=O)cc1COC(=O)c1cccnc1SC
 : 1 | i | . | . | . | 99 | 0.88
[41] C/C(CC(=O)Nc1ccc(Cl)c(C(F)(F)F)c1)=N\NC(N)=S
 : 6 | i | 145 | . | -20 | 105 | 0.94
[42] COc1ccc(CC(=O)NNC(=O)CCC(=O)Nc2cc(C)ccc2C)cc1
 : -6 | i | . | . | . | 102 | 0.95
[43] Cc1ccc(NCC(=O)N/N=C/c2cccn2C)cc1
 : . | i | . | . | . | 94 | 1.1
[44] CN(C(=O)COc1ccc([N+](=O)[O-])cc1)C1CCS(=O)(=O)C1 (stereo not drawn)
 : -6 | i | . | . | . | 97 | 0.84
[45] CCCSc1nc(N2CCOCC2)c2c(c1C#N)CC(C)(C)SC2
 : -2 | i | 87 | 1.0 | 31 | 97 | 0.93
[46] CC[C@@H]1C=C(C)C[C@H](C)C[C@H](OC)[C@H]2O[C@@](O)(C(=O)C(=O)N3CCCC[C@H]3C(=O)O[C@H](/C(C)=C/[C@@H]3CC[C@@H](O)[C@H](OC)C3)[C@H](C)[C@@H](O)CC1=O)[C@H](C)C[C@@H]2OC
 : -9 | i | 38 | -1.1 | -32 | 56 | 0.9
[47] COc1ccc(-c2cc3nc(C)c(CCC(=O)NCc4ccc(F)cc4)c(C)n3n2)c(OC)c1
 : 0 | i | . | . | . | 104 | 1
[48] CCOC(=O)COc1ccc(Br)cc1/C=C\c1[nH]c(=O)[nH]c(=O)c1[N+](=O)[O-]
 : -4 | i | 98 | -0.1 | -14 | 121 | 0.92
[49] CCOc1ccc(C(=O)COc2ccc(NC(C)=O)cc2)cc1
 : -2 | i | 235 | -2.5 | 41 | 59 | 1
[50] C=CCn1c(SCN2C(=O)c3ccccc3C2=O)nc2ccc(Cl)cc2c1=O
 : -5 | i | 108 | -1.6 | 7 | 103 | 1.1
[51] Cc1ccc(-c2nc(NCCN3CCOCC3)c3ccccc3n2)cc1
 : 0 | i | . | -0.6 | . | 97 | 0.83
[52] Cc1cc(C(F)(F)F)n(-c2nc(C(=O)N/N=C/c3ccc(F)cc3)cs2)n1
 : -11 | i | 73 | -2.9 | -29 | 105 | 0.94
[53] COc1ccc(S(=O)(=O)N(C)c2ccc(C(N)=O)cc2)cc1
 : 1 | i | 104 | -1.8 | -1 | 101 | 1
[54] O=[N+]([O-])C(C1CCS(=O)(=O)C1)C1CCS(=O)(=O)C1 (stereo not drawn)
 : 0 | i | . | . | . | 109 | 1
[55] N#Cc1c(-c2ccc(F)cc2)cc(-c2cccnc2)nc1N
 : -6 | i | 101 | 0.2 | -13 | 106 | 1
[56] Cc1ccc(CSc2nnc(SCC(=O)N/N=C/c3ccc(C(=O)O)cc3)s2)cc1
 : . | i | . | . | . | 102 | 0.94
[57] COc1cc(C(=O)N/N=C/c2sccc2C)cc(OC)c1OC
 : -6 | i | 7 | . | -233 | 110 | 0.52
[58] CC(=O)Nc1ccc(C(=O)N/N=C/c2ccccc2OC(=O)c2ccc(Cl)cc2)cc1
 : -1 | i | 105 | -1.5 | 29 | 103 | 0.99
[59] CCOC(=O)N1CCN(C(=O)CSc2nc3c([nH]c4ccccc43)c(=O)n2C)CC1
 : -5 | i | . | -1.0 | . | 100 | 0.72
[60] CCC(C)Nc1nnnc2c1sc1nc3c(cc12)COC(C)(C)C3 (stereo not drawn)
 : -8 | i | 78 | . | 55 | 79 | 0.94

More entries follow:
Each structure is followed by: PKD1 inh | HSV augment | INS promoter inh cell count | GALR2 agonist | INS promoter inh | RGS16-Gao HTS | HSV augment primary fold
[61] Cc1nn(C(=O)N2CCCCC2)c(C)c1CN1C(=O)c2ccccc2C1=O
 : -7 | i | 73 | 0.6 | -1 | . | 0.91
[62] CCOC(=O)N1CCN(C(=O)CCSc2ccccc2)CC1
 : 3 | i | . | -0.2 | . | 103 | 0.96
[63] CCC(C)N1C(=O)CCC1C(=O)O (stereo not drawn)
 : -3 | i | 47 | -0.2 | 0 | 103 | 1
[64] O=C(c1cccc(C(F)(F)F)c1)C1CCCN(Cc2cccn2-c2ncccn2)C1 (stereo not drawn)
 : -5 | i | . | . | . | 96 | 0.99
[65] CCOc1ccccc1NC(=O)c1nc(-c2ccccc2)oc1C
 : -2 | i | . | . | . | 101 | 0.99
[66] Cc1nn(C)c(C(=O)N2CCOCC2)c1Cl
 : 6 | i | . | -0.6 | . | 96 | 1
[67] O=C(OCC(=O)N1CCOCC1)c1ccc2[nH]c3c(c2c1)CCCC3
 : . | i | . | . | . | 101 | 0.9
[68] Cc1cccc(NC(=O)CSc2nnnn2-c2ccc3c(c2)OCCO3)n1
 : -5 | i | . | . | . | 113 | 1
[69] CC(C)C(=O)Nc1c(O)c2ccccc2[nH]c1=O
 : 5 | i | 104 | . | -50 | 101 | 0.95
[70] Cc1sc(NC(=O)CN2CCOCC2)c(C#N)c1C
 : . | i | . | . | . | 103 | 1
[71] Nc1nc(SCC(=O)N2CCCC2)[nH]c(=O)c1NC(=O)c1ccco1
 : 2 | i | . | -2.7 | . | 100 | 1
[72] CC(C(=O)N1CCc2ccccc21)n1cccc1 (stereo not drawn)
 : -9 | i | 64 | -0.9 | -23 | 79 | 0.91

Compounds were not picked by outcome; about 1.2% have a hit in one of these screens.
